# Screening data deposited in PubChem BioAssay by National Center for Advancing Translational Sciences (NCATS).
# HPGD inh: inhibitors of human 15-hydroxyprostaglandin dehydrogenase (HPGD) | P15428 | purified HPGD, NADH fluorescence kinetic, PGE2 substrate | Potency, µM, inactives show at the top dose activity change, negative = inhibition, hits mostly inhibitors | 150,000 tested, 4.3% active; active = well fitted inhibition curve with a large enough effect (not every such curve was filed as active); inconclusive = small, poorly fitted or top-dose-only effect, or another doubt; inactive = no such curve, though single readings can be large or run the other way;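 note: top concentration of the series not given in the record; plate controls included wells without enzyme; inactives centre near -10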
# Target sequence (P15428 whole entry, looked up): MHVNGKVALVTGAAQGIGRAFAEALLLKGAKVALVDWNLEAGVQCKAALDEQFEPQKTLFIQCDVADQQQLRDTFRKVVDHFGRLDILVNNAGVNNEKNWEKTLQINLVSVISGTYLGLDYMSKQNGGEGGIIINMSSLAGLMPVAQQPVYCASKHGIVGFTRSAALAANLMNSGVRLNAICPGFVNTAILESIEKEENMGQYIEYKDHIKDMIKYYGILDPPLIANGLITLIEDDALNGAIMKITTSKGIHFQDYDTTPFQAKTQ
#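 NADH formation kinetics: reaction with 30 uM PGE2 and 1 mM NAD+ (final), 20 nM enzyme, Tris-HCl pH 8 with Tween 20, after 15 min compound preincubation at room temperature. Fluorescence change, last versus first of five reads.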
# Numbers without * were called inactive; ? = inconclusive. % is set by controls: 0 for no effect and ±100 for the full control effect; potency is the fitted concentration of half-maximal effect. This is a subset. The share of hits here may be higher or lower than overall.
Compound	HPGD inh
CCOC(=O)c1c(C)[nH]c(C(=O)COC(=O)c2cn(CC)c3nc(C)ccc3c2=O)c1C	0%
CCC(C)n1c(SCC(=O)/C(C#N)=C(\C)N)nc2ccccc2c1=O (centres undefined)	-14%
CCOc1ccc(CCNC(=O)C(CC)n2nc(C)n3c(cc4sccc43)c2=O)cc1OCC (centres undefined)	-25%
O=C(NNC(=O)c1cccc(Br)c1)C(=O)N1CCCCC1	-6%
C[C@H](NCCN(C)C)[C@@H]1CCC2C3CCc4cc(O)ccc4[C@H]3CCC21C (some centres undefined)	1%
CCSc1nc2c(c(=O)[nH]1)C(C(C)C)C(C#N)=C(N)O2 (centres undefined)	-7%
O=C(CSc1nnc(-c2cccnc2)n1Cc1ccco1)c1ccc(Cl)c(Cl)c1	-16%
Nc1nc2nc3c(nc2c(=O)[nH]1)CN(c1ccc(C(=O)O)cc1)C3=O	-1%
CC(=O)Nc1ccccc1NC(=O)C(F)(F)F	2%
NC12CC3CC(C1)CC(O)(C3)C2	2%
COc1ccc(CNC(=O)CCn2cccc2)cc1	-22%
O=S(=O)(c1ccc(Br)s1)N1CCN(c2ncccn2)CC1	-12%
CN(CC(O)CON=C1c2ccccc2-c2ccccc21)S(=O)(=O)c1ccc(Br)cc1 (centres undefined)	-17%
Cc1ccc(S(=O)(=O)N(Cc2cc3cccc(C)c3[nH]c2=O)c2ccccc2)cc1	?
C/C(=N/NS(=O)(=O)c1ccccc1)c1ccc(NC(=O)C(F)(F)F)cc1	-5%
O=C(/C=C/c1ccc(Cl)cc1)Nc1ccc(N2CCCCC2)cc1	-4%
COc1ccc(N(CC(=O)NCCSc2ccccn2)S(C)(=O)=O)cc1	-9%
NC(=O)CN1CCOCCOCCN(CC(N)=O)CCOCC1	-7%
CC(C)CN(CC(C)C)c1nc(N)c(C#N)c(CC#N)c1C#N	-16%
O=C(O)CC(CC(=O)O)C(=O)O	-4%
Cc1ccc(C(=O)OC[C@H]2O[C@H](Cl)C[C@@H]2OC(=O)c2ccc(C)cc2)cc1	-4%
COc1cc(CN2CCN(c3ccccc3F)CC2)cc(OC)c1O	1%
O=C(CCCCn1c(=O)c2ccccc2n(CC(=O)Nc2cccc(F)c2)c1=O)NCc1ccco1	2%
Nc1ccc(C(=O)Nc2ccccc2C(=O)O)cc1	-12%

# Sorted by the number under HPGD inh (lowest first): three from the list above
Compound	HPGD inh
COc1ccc(CNC(=O)CCn2cccc2)cc1	-22%
CC(C)CN(CC(C)C)c1nc(N)c(C#N)c(CC#N)c1C#N	-16%
O=C(O)CC(CC(=O)O)C(=O)O	-4%

# Later entries.
Compound	HPGD inh
COc1ccc(CNc2nc3ccccc3n2CCN2CCCCC2)c(OC)c1	-5%
N#Cc1ccc(CN2CCCC3(CCN(C(=O)c4ccncc4)CC3)C2)cc1	-4%
O=C1C(=O)N(Cc2cccc([N+](=O)[O-])c2)c2ccccc21	?
COc1ccccc1CN(C)C(=O)C1(c2ccc(Cl)cc2)CC1	-5%
O=C(CSc1nc(-c2ccccc2Cl)ns1)NCc1ccc2c(c1)OCO2	-7%
COc1ccc(C2=N[C@@H](C(C)C)CO2)cc1	-6%
COc1ccc(C[C@@H]2C(=O)N[C@H](C)C(=O)N(C)[C@@H]3Cc4ccc(cc4)Oc4cc(ccc4O)C[C@H](C(=O)N[C@@H](C)C(=O)N[C@H](C)C(=O)N2C)N(C)C3=O)cc1	-6%
CCn1c(=NC(=O)CSC(C)=O)sc2ccccc21	-4%
CCCc1nc(SCC(=O)N2CCCC2)c2ccccc2n1	-8%
O=C(Nc1ccc2c(c1)oc1ccccc12)C1CC1	-10%
CCNc1ccc(C(=O)O)cc1N	?
O=C(NCC1CCN(c2ccc(S(=O)(=O)N3CCOCC3)cc2)CC1)c1cccc(Cl)c1	-25%
O=C(COc1ccccc1F)N1CCN(S(=O)(=O)/C=C/c2ccccc2)CC1	-7%
CCc1ccc2oc(-c3cc(N)cc(C)c3O)nc2c1	-5%
O=C(CSc1nc2ccc(Cl)cc2[nH]1)NCCc1ccccc1	-3%
CCC(C)C(NC(=O)c1ccc(Cl)cc1Cl)C(=O)O (centres undefined)	-10%
O=C(O)c1cc(C(=O)O)cc(N2C(=O)c3ccccc3C2=O)c1	-12%
CCOC(=O)C(Oc1ccc2c(-c3ccc(OC)cc3)cc(=O)oc2c1C)c1ccccc1 (centres undefined)	?
CC(C)c1nc(=S)n(-c2ccccc2)[nH]1	2%
Cc1cccc(Nc2nnc(SCC(=O)NC(=O)Nc3ccc4c(c3)OCCO4)s2)c1	-5%
O=[N+]([O-])c1ccc(OCC(O)CN(C2CCCCC2)C2CCCCC2)cc1 (centres undefined)	-2%
Cc1ccccc1Cn1cc(NC(=O)COc2ccccc2)cn1	-24%
COC(=O)c1cccc(-n2[nH]nnc2=S)c1	28µM*
COC/C=C/C1=CC2=CC(=O)C(C)(OC(=O)c3cnc4ccccc4n3)C(=O)C2=CN1c1ccc(OC)cc1 (centres undefined)	-9%
CC(=O)C1=C(O)C(=O)N(Cc2ccccc2)C1c1ccccc1F (centres undefined)	-19%
CC(=O)c1ccc(NC(=O)N2CCN(c3cccc(Cl)c3)CC2)cc1	-10%
CN1CCN(C2=C(Cl)C(=O)N(c3ccc(Cl)c(Cl)c3)C2=O)CC1	-11%
CN1CCCN(C(=O)c2cc(=O)[nH]c3ccccc23)c2nc3ccccc3nc21	-25%
C=C1CSc2nc(=O)c3c(C)c(C)sc3n21	-28%
C[C@@]12C(=O)OC(=O)[C@]1(C)[C@H]1CC[C@@H]2O1	-4%
CN(C)c1ccc(/C=N\NC(=O)c2cnc3ccccc3c2)cc1	-2%
C/C(=N/Oc1nc(C)cc(C)n1)c1ccc(F)cc1	3%
Cc1cc(Nc2ccccc2C(=O)O)nc2nc3ccccc3c(=O)n12	-2%
CN(c1ccccc1C(N)=O)S(=O)(=O)c1ccccc1	-14%
CCC(C)NC(=O)CCC(=O)NNc1nc2ccccc2c2nc(C)nn12 (centres undefined)	2%
Clc1ccc(-c2nnc(C3CCCCC3)o2)cc1	-22%
Cc1cc(NC(=O)CN2CCCCC2C)no1 (centres undefined)	2%
CC(=O)N(CN1C(=O)c2ccccc2C1=O)c1cccc(C)c1	6%
COc1cccc(N(C(=O)Cn2nnc(-c3cccs3)n2)C(C(=O)NC2CCCCC2)c2ccncc2)c1 (centres undefined)	-12%
N#C/C(=C\c1cn(Cc2ccccc2F)c2ccccc12)C(=O)NCc1ccco1	-7%
CC(Sc1nc(-c2ccc(F)cc2)cs1)C(=O)Nc1ccc(Cl)cn1 (centres undefined)	-18%
COc1cccc(C2C(C(=O)c3cccs3)=C(O)C(=O)N2CCCn2ccnc2)c1OC (centres undefined)	-12%
Cc1nc2sccn2c(=O)c1Cl	-7%
CC(C)CN(CCC(=O)O)CC(C)C	-10%
CCCCNc1nc(C)nc2c1nc(-c1ccccc1)n2CCCN(C)C	?
CCOC(=O)C1=C(C)NC2=C(C(=O)CCC2)C1c1cccs1 (centres undefined)	?
COc1ccc(N(CC(=O)NC(C)C)S(=O)(=O)c2ccc(NC(C)=O)cc2)cc1	-10%
COc1ccc(C)cc1S(=O)(=O)Nc1cccc(SC)c1	-3%
Cc1ccc(NC(=O)c2cc(S(=O)(=O)NCCc3ccccc3)ccc2F)cc1Cl	-19%
Clc1cccc(OCCN2CCN(CCOc3cccc(Cl)c3)CC2)c1	-9%
O=c1c(S(=O)(=O)c2ccc(Cl)cc2)cn(Cc2ccccc2)c2ccc(F)cc12	-12%
C/C(=N\NC(=O)C(=O)Nc1cccc(Cl)c1)c1ccncc1	-13%
COc1cc(/C=N/n2cnnc2)ccc1OCc1ccc(C)cc1	?
S=C(NCc1ccco1)Nc1ccc(Cl)cc1Cl	28µM*
C/C(=N\NC(=O)C(C)Nc1cccc(Cl)c1)c1ccc([N+](=O)[O-])cc1 (centres undefined)	-3%
CCS(=O)(=O)NCC(c1cccnc1)N1CCN(c2ccc(F)cc2)CC1 (centres undefined)	-6%
Cc1cc(C(=O)N2CCOCC2)n(-c2ccccc2)n1	-10%
CCC1(CC)Nc2ccccc2C(=O)N1c1ccc(NC(C)=O)cc1	?
CC1CN(Cc2ccc(Cl)cc2Cl)CC(C)O1 (centres undefined)	-1%
COc1ccc(NC(=O)N2CCC3(CC2)CCN(C(=O)c2ccncc2)CC3)cc1	-4%

# (more compounds)
Compound	HPGD inh
CC(C)Nc1nc(Cl)nc(NNC(=O)C(C)Oc2ccccc2)n1 (centres undefined)	-4%
CSc1ccc(-c2nnn(Cc3ccc(C)cc3)n2)cc1	-12%
CCOc1ccc(Nc2ncnc3c2cnn3-c2ccccc2)cc1	-9%
N#CC1=C(N)OC2=C(C(=O)CCC2)C12CCN(C(=O)OCc1ccccc1)CC2	-24%
CC(=O)N1CCN(C2=Nc3cccc4cccc2c34)CC1	-13%
CC1(C(=O)NC2CCCC2)CCC(=O)N1Cc1ccccc1Cl (centres undefined)	-6%
CC(C)Cn1c(=O)[nH]c2ccccc21	-18%
CCCc1cc(C(N)=O)c(NC(=O)C2CCCO2)s1 (centres undefined)	?
CS(=O)(=O)c1ccc(Cl)c(NC(=O)c2ccc3ccccc3c2)c1	-3%
COc1cccc(CNn2c(-c3cccc(C)c3)nc3ccccc3c2=O)c1	-14%
Cc1cccc(-c2n[nH]c(=S)n2/N=C/c2ccc(C)o2)c1	16µM*
CC(C)CCNC(=O)CCNS(=O)(=O)c1ccc(Cl)cc1	2%
O=C(NC1CCCCC1)c1ccc(S(=O)(=O)N2CCOCC2)cc1	-4%
O=C(NCc1ccccn1)c1c(O)c2c([nH]c1=O)CCCC2	-17%
Cc1cccc(NC(=O)c2ccc3ccccc3n2)c1C	-10%
CC(=O)C1=C(C)NC(SCc2cccc3ccccc23)=C(C#N)C1c1ccco1 (centres undefined)	?
O=C(COc1cc(Cl)c(Cl)cc1Cl)NC(=O)NC1CCCC1	-27%
O=C(Nc1ccc(NC(=O)C2CC2)nc1)c1ccco1	-8%
Cc1cc(C)n(C(=O)CNC(=O)c2cccs2)n1	-8%
Cc1c(Cl)cccc1NC(=O)CC(C(=O)O)C1CCCO1 (centres undefined)	-13%
CCOC(=O)c1c(NC(=O)CSc2nnc(-c3ccc(C)cc3)o2)sc(C(C)=O)c1C	-10%
Cc1sc2nc(COC(=O)c3ccc(N4CCCC4)c([N+](=O)[O-])c3)[nH]c(=O)c2c1C	-13%
COc1ccc(OC)c(S(=O)(=O)N2c3cc(F)ccc3CCC2C)c1 (centres undefined)	-10%
Cc1ccc(C(C)C)c(Oc2nnnn2-c2ccccc2)c1	-3%
COc1ccc(C2Nc3ccccc3C(=O)N2O)cc1CN1CCOCC1 (centres undefined)	-3%
COc1ccc(Nc2nc(-c3sc(NC(C)=O)nc3C)cs2)cc1	?
COc1ccc(-c2cc(C(F)(F)F)nc(SCC(=O)N(C)Cc3cn(C)nc3C)n2)cc1OC	?
CCCN(CCC)CCNC(=O)c1cc2c(=O)n(C)c3ccccc3c2n1C	-17%
c1ccc(CNc2nc(-c3cccs3)nc3ccccc23)cc1	-25%
CCOc1ccc2[nH]c(=O)c(CN(Cc3nnnn3CCc3ccccc3)CC3CCCO3)cc2c1 (centres undefined)	-24%
Fc1cccc(Cl)c1Cn1nnc(-c2ccc(N3CCOCC3)cc2)n1	?
COc1ccc(N/C(=N\c2nc(C)cc(C)n2)NC(=O)C(C)C)cc1OC	-1%
CC1CCN(S(=O)(=O)c2ccc(Br)s2)CC1	-19%
CCOC(=O)c1c(N)sc(=S)c2c1CCC2	?
Cc1ccccc1N1C(=O)c2cccc3c(N(C)CCO)ccc(c23)C1=O	-19%
CC(=O)OC(C(=O)NCc1ccc2c(c1)OCO2)c1ccccc1Cl (centres undefined)	-19%

# Brought forward from above: two entries, then new ones.
Compound	HPGD inh
Cc1ccccc1N1C(=O)c2cccc3c(N(C)CCO)ccc(c23)C1=O	-19%
CC(=O)OC(C(=O)NCc1ccc2c(c1)OCO2)c1ccccc1Cl (centres undefined)	-19%
CC(=O)c1c(C)[nH]c(C(=O)OCC(=O)N2CCN(S(=O)(=O)c3ccc(C)cc3C)CC2)c1C	-3%
CCOC(=O)c1c(-c2ccccc2)csc1NC(=O)CCN1C(=O)c2ccccc2C1=O	-16%
COc1cc(/C=C/C(=O)N2CCOCC2)ccc1OCc1ccccc1	?
O=C(O)CCC(=O)N1CCN(c2nc3ccccc3s2)CC1	-7%
O=C(Nc1ccccc1)c1ccccc1OCc1cccc([N+](=O)[O-])c1	-3%
COC(=O)CCCC1=CC2=C(c3ccccc3)C(=O)C(C)(OC(=O)C3CCCC3)C(=O)C2=CN1Cc1ccc2c(c1)OCO2 (centres undefined)	-5%
COc1ccc(OC)c(Nc2nc(-c3cccs3)cs2)c1	-23%
COc1ccc(CNC(=O)CSc2nnnn2Cc2ccccc2)cc1	-3%
CC1CN(C(=O)Cn2cnc3c2c(=O)n(C)c(=O)n3C)CC(C)O1 (centres undefined)	-11%
COCCn1c(CN2CCN(c3ccc(OC)cc3)CC2)nc2c1c(=O)n(C)c(=O)n2C	-19%
N#Cc1c(NC(=O)CCC(=O)O)sc2c1CCCC2	-1%
